# High-throughput results: PubChem, Fisher Drug Discovery Resource Center
# NPYLR7 agonist = activates Aedes aegypti NPYLR7 receptor. HEK293T NPYLR7/Galpha15, GCaMP6s calcium fluorescence. activation, % at 10 µM. 270,000 tested, 0.15% active. AID 1259423; in the data active = activation above about 40%;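 also: 0% = vehicle and 100% = reference agonist at the receptor; some compounds past the cut are filed as inactive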
# NPYLR7 agonist max-min = second read-out of NPYLR7 agonist, no call of its own (marks repeat the call); activation, %; measured here: Max-Min RFU normalised activation; some inactives read as strong as hits;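 span of the calcium signal over five minutes; 0% = vehicle and 100% = native peptide agonist; compound fluorescence can raise it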
# * = called active by the depositor.
# Below each SMILES – NPYLR7 agonist	NPYLR7 agonist max-min
- CCN(CCn1cccn1)C(=O)C1CCC(=O)N(CCN2CCOCC2)C1 (stereo unspecified)
 : 2	1
- O=S(=O)(c1ccccc1Cl)N1CCC(Cc2ccc3c(c2)OCO3)CC1
 : 1	3
- CC(=O)c1ccc(N2CCN(Cn3nc(C)n(-c4ccc(C)cc4)c3=S)CC2)c(F)c1
 : -4	-5
- CC(C)c1nccn1C(C)C(=O)NCCc1c[nH]c2ccccc12 (stereo unspecified)
 : -4	-7
- CCCC1CCCN(C(=O)Nc2cc(C(=O)N(C)C)ccc2C)CC1 (stereo unspecified)
 : -13	-17
- Cc1nn(S(=O)(=O)c2ccc(Br)cc2)c(C)c1S(=O)(=O)N(C)c1ccccc1
 : 2	0
- CC1C(=O)N(c2ccccc2-c2ccccc2)CCN1C(=O)COc1ccc(Cl)cc1 (stereo unspecified)
 : -5	-4
- Cc1ccc(CCC(=O)N2CCNCC2C(=O)N2CCCC2)cc1C (stereo unspecified)
 : 9	2
- CC(C#N)CNC(=O)c1ccccc1-c1ccccc1C#N (stereo unspecified)
 : 13	5
- O=C1OC(/C=C\c2cccc([N+](=O)[O-])c2)=NC/1=C/c1cccc(Br)c1
 : -14	-14

# (listing goes on)
# Below each SMILES – NPYLR7 agonist	NPYLR7 agonist max-min
- O=C(NC1CCCCNC1=O)c1cc2n(n1)CCN(Cc1c(Cl)cccc1Cl)C2=O (stereo unspecified)
 : 21	9
- O=C(COCc1ccccc1)N(Cc1cccc(Cl)c1)Cc1nc2cc(Cl)ccc2o1
 : 3	-1
- N[C@@H]1CC[C@@H](NC(=O)COc2cccnc2)C1
 : -4	-7
- COCCN1C(=O)N(C2Cc3ccccc3C2)C(=O)C12CCN(Cc1c(C)nc3sccn13)CC2
 : 7	-2
- O=C1NCC2(CCCN(C(=O)c3ccccc3N3CCOCC3)C2)O1 (stereo unspecified)
 : 12	10
- Cc1cc(Oc2ccc(F)cc2)nc(SCc2cc(F)cc(F)c2)n1
 : 18	8
- Cc1ccc(Nc2nc3nonc3nc2Nc2ccccc2OC(=O)c2ccccc2)cc1C
 : -6	2
- CC(C)(C)c1cc(S(N)(=O)=O)c2cc(C(C)(C)C)ccc2c1
 : 1	-2
- CCNC(=O)CN(CC)C(=O)/C=C/c1c(F)cccc1Cl
 : 12	8
- Cc1ccccc1NC(=O)CSc1nccn2nc(-c3ccccc3)cc12
 : -2	-7

# (further entries)
# Below each SMILES – NPYLR7 agonist	NPYLR7 agonist max-min
- Cc1cccc2sc(N(Cc3ccccn3)C(=O)c3ccc([N+](=O)[O-])o3)nc12
 : -1	-3
- Cc1c(Br)c([N+](=O)[O-])nn1CC(=O)N(C)Cc1ccccc1
 : -3	-5
- CCCCc1ccc(N=Cc2nc(-c3cccc(OC)c3)oc2O)cc1
 : -8	-9
- CC1(C(=O)NCc2ccc(C(F)(F)F)cc2)CCN1Cc1ccc(-c2ccccc2)o1 (stereo unspecified)
 : 5	-1
- COc1ccc2[nH]c(C(=O)O)c(CCN3C(=O)c4ccccc4C3=O)c2c1
 : 12	11
- FC(F)(F)c1nnc2n1N=C(c1cccs1)CS2
 : 2	7
- Cn1ccnc1-c1ccc(N2CCN(C/C=C/c3ccccc3)CC2)nn1
 : 0	-1
- COCc1nc(-c2cccc(CN3CCN(C(=O)c4cccc(C#N)c4)CC3)c2)no1
 : 23	10
- CSc1ccc(C=Cc2nc(N)nc(-c3ccccc3O)n2)cc1
 : 1	-1
- CCOC(=O)c1nn(-c2ccccc2)c(=O)cc1OS(=O)(=O)c1ccc(CC)s1
 : 11	5

# (list continues)
# Below each SMILES – NPYLR7 agonist	NPYLR7 agonist max-min
- COC(=O)C1=C(C)N(Cc2ccccc2)C(=O)C1(NC(=O)CCc1ccccc1)C(F)(F)F (stereo unspecified)
 : -9	-15
- CCOC(=O)CN1CCN(c2cccc(C(F)(F)F)c2)C(=O)C1C (stereo unspecified)
 : 0	0
- Cc1nc(SCc2cccc(C(=O)NCCc3ccccn3)c2)nc(N2CCN(c3ccccc3Cl)CC2)c1C
 : 4	7
- c1ccc(N2CCN(c3nnnn3-c3ccccc3)CC2)cc1
 : 4	3
- Cc1ccccc1C(C(=O)NCc1c(C)noc1C)N(C)C (stereo unspecified)
 : 4	-6
- Cc1cccnc1CC(C)Nc1nccc(C2CCCC2)n1 (stereo unspecified)
 : 11	1
- CN(Cc1cccc(C#N)c1)C(=O)Nc1c(F)cccc1-n1cccn1
 : 10	6
- CC1(C(=O)NCc2cccc3ccccc23)CCN1Cc1ccc(-c2ccccc2)o1 (stereo unspecified)
 : 6	0
- COc1nn(C)cc1C(=O)Nc1cccc(C(C)=O)c1
 : 2	4
- O=C(c1ccc(Cl)c(Cl)c1)N1CCC(Cc2ccc(F)cc2)CC1
 : 2	-2

# Next part.
# Below each SMILES – NPYLR7 agonist	NPYLR7 agonist max-min
- CC(C)(C)c1cc(NC(=O)C(=O)NC2CCN(C3CC3)C2)no1 (stereo unspecified)
 : 12	12
- O=C(CCSc1ccc2c(c1)OCCO2)NCCc1cnc[nH]1
 : 5	-4
- CCCSc1ncccc1C(=O)Nc1ccc(C(C)(C)C)cc1
 : -6	-13
- Cc1ccc(S(=O)(=O)NC(=O)C2CCCCC2)cc1
 : 3	2
- COc1ccc(F)cc1C(=O)Nc1ccc(C(=O)c2nccn2C)cc1
 : 4	-1
- CC(=O)n1c(O)c(N=NC(=O)COc2ccc(Cl)cc2)c2ccccc21
 : -1	-5
- CC(=O)NC1=C(NCCOc2ccccc2)C(=O)c2ccccc2C1=O
 : 2	9
- O=C(Cn1c(=O)oc2ccccc21)c1cc(F)ccc1F
 : 0	-1
- COc1ccc(OC)c(CN(Cc2ccc3c(c2)OCO3)Cc2nc(C(=O)NCc3ccco3)co2)c1
 : 18	25
- CC(C)CCN1CCN(Cc2cnc(N3CCOCC3)s2)CC1CCO (stereo unspecified)
 : 8	2

# Continued:
# Below each SMILES – NPYLR7 agonist	NPYLR7 agonist max-min
- CCc1cnc(CN2C(C(=O)OC)CC3CCCCC32)o1 (stereo unspecified)
 : 10	4
- Cc1nc(C#N)c(N/N=C\c2ccccc2)o1
 : -9	-11
- CN(Cc1nccs1)C(=O)c1cn(CC2CCCNC2)nn1 (stereo unspecified)
 : 0	-1
- CCC(=O)N(c1nnc(SCc2cc(=O)n3c(C)cccc3n2)s1)C1CC1
 : 6	8
- CS(=O)(=O)Cc1cccc(C(=O)NC2CCCc3ccccc32)c1 (stereo unspecified)
 : 4	1
- COc1ccc(NC(=O)NC(Cn2ccnc2)C(C)(C)C)c(C(F)(F)F)c1 (stereo unspecified)
 : 6	3
- COc1ccc(C(=O)N2CCN(Cc3ccccc3CO)CC2)c(OC)n1
 : 6	3
- C=CCN(CC=C)C(=O)c1ccc(-c2ccc3c(c2)OCO3)s1
 : 2	0
- O=C(NCCNc1ccc([N+](=O)[O-])cc1)NCc1ccccc1
 : -3	-7
- O=C(Nc1cccc(Cl)c1)C(=O)c1ccc(C2CCCCC2)cc1
 : -6	-12

# Further records follow:
# Below each SMILES – NPYLR7 agonist	NPYLR7 agonist max-min
- O=C(N=C1N=C2C=CC(Cl)=CN2Cc2ccccc21)c1cc[n+]([O-])cc1
 : 7	6
- Cc1cccc(S(=O)(=O)Nc2[nH]ncc2-c2cccc(Cl)c2)c1
 : 1	2
- COc1ccccc1CN(CCc1c[nH]c2ccccc12)C(=O)CN(C(=O)COc1ccccc1)C(C)C
 : 8	14
- COc1cccc(-c2cc3c(Nc4ccc5c(c4)OCO5)nccc3n2C)c1
 : -7	-10
- CC(C(=O)Nc1ccccc1SC1CCCC1)n1cncn1 (stereo unspecified)
 : -3	-2
- NC(=O)C1Cc2ccccc2CN1C(=O)c1cccc2ccnn12 (stereo unspecified)
 : 4	2
- C=CCOc1ccc(C(=O)OCCN2CCCCC2)cc1
 : -7	-8
- O=C1CC(c2ccccc2)CC2=Nc3ccccc3NC(c3cccc(F)c3)C12 (stereo unspecified)
 : 0	-2
- Cc1cn2nc(CN3CCCc4ccccc43)n3c2c1CCCC3
 : -10	-11
- Clc1c(C(Cl)(Cl)Cl)nsc1N1CCCCC1
 : -11	-12

# The results go on.
# Below each SMILES – NPYLR7 agonist	NPYLR7 agonist max-min
- CCN1CCN(C(=O)CCC2CCN(C(=O)CCOc3ccccc3)CC2)CC1
 : 9	5
- Cc1cc(C)n(-c2ccc(N3CCN(C(C(N)=O)c4ccccc4)CC3)nc2)n1 (stereo unspecified)
 : 12	11
- Cc1ccc(C(NC(=O)CN(C)Cc2ccco2)c2cccs2)cc1 (stereo unspecified)
 : -2	-2
- c1ccc(-c2nc(N3CCOCC3)nc3ccccc23)cc1
 : -2	-5
- CCO/N=C1\C(=O)Nc2ccc(Cl)cc21
 : 5	4
- CCCc1nc(N2CCN(C(=O)c3cccc([N+](=O)[O-])c3)CC2)c2c(-c3ccccc3)noc2n1
 : -7	-9
- CC(C)(C)C(NCC(=O)N1CCc2ccccc21)c1cccs1 (stereo unspecified)
 : 5	2
- Cc1ccc2oc(-c3cc(NC(=O)c4ccc(Cl)c(Cl)c4)ccc3O)nc2c1
 : 12	11
- CO[C@H]1CN(C(=O)NC2CCCCC2)[C@@H]2CC[C@@H](O)[C@H]1C2
 : 26	27
- COc1cccc(CN2CCCC3(CCN(c4ncccc4C(N)=O)C3)C2=O)c1OC (stereo unspecified)
 : 3	5

# Next section:
# Below each SMILES – NPYLR7 agonist	NPYLR7 agonist max-min
- Oc1ccc(C=NN2CCN(Cc3ccccc3)CC2)cc1
 : -5	-10
- CC1(C(=O)Nc2ccccc2F)CCN1Cc1ccccc1OC(F)F (stereo unspecified)
 : 6	1
- Cc1ccc2nc(-c3cccc(Cl)c3)c(NC(C)(C)CC(C)(C)C)n2c1
 : 3	5
- O=C(Cn1cc(C(F)(F)F)ccc1=O)OCC(=O)c1ccc(Br)s1
 : 0	-3
- CC(C)NC(=O)Nc1ccccc1S(=O)(=O)NCc1ccco1
 : 2	0
- CCS(=O)(=O)NCCCn1nc(-c2ccc(C)cc2)ccc1=O
 : -2	-2
- O=C(c1cc2n(n1)CCN(Cc1cccc(Cl)c1)C2=O)N1CCN(c2cccc(Cl)c2)CC1
 : 5	12
- O=C(Nc1n[nH]c2ccccc12)C1CC1
 : 13	8
- COc1ccc(/C=N\NC(=O)CSc2nnc(-c3ccccc3)n2-c2ccccc2)cc1
 : 3	4
- CCOC(=O)C1(CCCc2ccccc2)CCN(C(=O)c2csnn2)CC1
 : 6	2

# (further entries)
# Below each SMILES – NPYLR7 agonist	NPYLR7 agonist max-min
- Cc1ccc(OCc2nnc(NC(=O)NCc3cccnc3)s2)cc1
 : 13	8
- CC(O)CN(Cc1ccc(F)cc1)Cc1ccc(F)cc1F (stereo unspecified)
 : 19	28
- CC(C)C(C#N)OC(=O)c1nn(-c2ccccc2F)cc1Br (stereo unspecified)
 : -5	-7
- CC(C)CSc1ncnc2c1nnn2C
 : 0	15
- Cn1c(=O)[nH]c(=O)c2c1nc(N1CCN(Cc3ccccc3F)CC1)n2CCCc1ccccc1
 : 5	4
- COc1cc(CNc2nncc(-c3ccccc3F)n2)cc(OC)c1OC
 : 7	7

# Part of the list above in order of molar mass, rising:
# Below each SMILES – NPYLR7 agonist	NPYLR7 agonist max-min
- O=C(Nc1n[nH]c2ccccc12)C1CC1
 : 13	8
- CCO/N=C1\C(=O)Nc2ccc(Cl)cc21
 : 5	4
- c1ccc(-c2nc(N3CCOCC3)nc3ccccc23)cc1
 : -2	-5
- Oc1ccc(C=NN2CCN(Cc3ccccc3)CC2)cc1
 : -5	-10
- CO[C@H]1CN(C(=O)NC2CCCCC2)[C@@H]2CC[C@@H](O)[C@H]1C2
 : 26	27
- CC(O)CN(Cc1ccc(F)cc1)Cc1ccc(F)cc1F (stereo unspecified)
 : 19	28
- CC(C)(C)C(NCC(=O)N1CCc2ccccc21)c1cccs1 (stereo unspecified)
 : 5	2
- CCS(=O)(=O)NCCCn1nc(-c2ccc(C)cc2)ccc1=O
 : -2	-2
- CC(C)NC(=O)Nc1ccccc1S(=O)(=O)NCc1ccco1
 : 2	0
- Cc1ccc(C(NC(=O)CN(C)Cc2ccco2)c2cccs2)cc1 (stereo unspecified)
 : -2	-2
- Cc1ccc(OCc2nnc(NC(=O)NCc3cccnc3)s2)cc1
 : 13	8
- CC1(C(=O)Nc2ccccc2F)CCN1Cc1ccccc1OC(F)F (stereo unspecified)
 : 6	1
- CC(C)C(C#N)OC(=O)c1nn(-c2ccccc2F)cc1Br (stereo unspecified)
 : -5	-7
- Cc1ccc2nc(-c3cccc(Cl)c3)c(NC(C)(C)CC(C)(C)C)n2c1
 : 3	5
- CCOC(=O)C1(CCCc2ccccc2)CCN(C(=O)c2csnn2)CC1
 : 6	2
- Cc1cc(C)n(-c2ccc(N3CCN(C(C(N)=O)c4ccccc4)CC3)nc2)n1 (stereo unspecified)
 : 12	11
- O=C(Cn1cc(C(F)(F)F)ccc1=O)OCC(=O)c1ccc(Br)s1
 : 0	-3
- COc1cccc(CN2CCCC3(CCN(c4ncccc4C(N)=O)C3)C2=O)c1OC (stereo unspecified)
 : 3	5
- COc1ccc(/C=N\NC(=O)CSc2nnc(-c3ccccc3)n2-c2ccccc2)cc1
 : 3	4
- CCCc1nc(N2CCN(C(=O)c3cccc([N+](=O)[O-])c3)CC2)c2c(-c3ccccc3)noc2n1
 : -7	-9
- Cn1c(=O)[nH]c(=O)c2c1nc(N1CCN(Cc3ccccc3F)CC1)n2CCCc1ccccc1
 : 5	4
- O=C(c1cc2n(n1)CCN(Cc1cccc(Cl)c1)C2=O)N1CCN(c2cccc(Cl)c2)CC1
 : 5	12

# Only part of the results is shown; count on the stated rates, not on these rows.
